# ClpP mod: qHTS Assay for Activators of ClpP; purified B. subtilis ClpP, FRET peptide cleavage, 20 min; Potency, µM (top dose mostly 57.5 µM), for inactives: at the highest dose activity change, negative = active; actives 1.9% (n = 340,000); active = well fitted falling curve with a large enough effect; inconclusive = small, poorly fitted or top-dose-only effect; inactive = no such curve, though single readings can be large or run the other way; further: potency means the concentration at half of the fitted maximal effect; the source files actives as falling curves though it sought activators and does not explain the sign; nearly all actives have a fitted effect of over 65% in size; many hits overshoot -100%
# Target sequence (P80244 whole entry, looked up): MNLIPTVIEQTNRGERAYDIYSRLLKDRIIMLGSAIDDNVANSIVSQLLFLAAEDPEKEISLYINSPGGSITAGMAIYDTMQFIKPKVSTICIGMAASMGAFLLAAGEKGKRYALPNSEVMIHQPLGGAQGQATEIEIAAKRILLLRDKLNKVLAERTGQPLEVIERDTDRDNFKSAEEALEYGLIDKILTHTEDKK
#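 FRET quenching reversal measured ClpP activation: 10 microg/mL B. subtilis ClpP at pH 8 with the FRET-FV decapeptide, read at 430 nm after 320 nm excitation. The 20-min minus 0-min signal was scaled between DMSO/no-enzyme wells and ADEP (5.8 microM final).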
# gsp antagonist: qHTS for Antagonists of gsp, the Etiologic Mutation Responsible for Fibrous Dysplasia/McCune-Albright Syndrome: qHTS | gsp-mutant cells, cAMP HTRF, 30 min; control for the full effect not named in the record | Potency, µM (highest dose often 76.9 µM), for the others: top-dose activity change, negative = inhibition, usual class: inhibitors | actives 0.4% (n = 340,000); active = falling curve of any shape with a large fitted effect; inconclusive = falling curve, mostly with a smaller effect; inactive = flat or rising curve; cell line not stated here;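 further: intracellular cAMP measured with PDE inhibitor Ro 20-1724 present during compound exposure; potency means the concentration at half of the fitted maximal effect; on the % scale 0 is the no-effect control and ±100 the full control effect; nearly all actives have a fitted effect of over 65% in size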
#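 Cells in G418 medium, seeded 16-24 h, 37C; buffer exchange to DPBS + 1 mM CaCl2, 0.5 mM MgCl2, 0.05% BSA; cpds in DMSO + […] (300 uM stock), 30 min 37C; HTRF cAMP detection.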
# Sfp inh: qHTS Assay for Inhibitors of Bacillus subtilis Sfp phosphopantetheinyl transferase (PPTase); Potency, µM, for inactives: max response, negative = inhibition, actives largely listed as inhibitors; 4'-phosphopantetheinyl transferase ffp (Bacillus subtilis), Q9F4F7; actives 3.5% (n = 310,000); Biochemical Sfp PPTase activity, qHTS; active means well fitted inhibition curve with a large enough effect; inconclusive means small, poorly fitted or top-dose-only effect, or another doubt; inactive means no such curve, though single readings can be large or run the other way;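 further: the enzyme is Sfp with the accession as filed and its product quenches rhodamine fluorescence; potency means the concentration at half of the fitted maximal effect; 0% = enzyme reaction without inhibitor and -100% = no enzyme wells; top concentration of the series not given in the record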
#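 Fluorescence-quenching assay with 15 nM Sfp, 5 uM rhodamine-CoA and 12.5 uM BHQ-2-labelled ybbR peptide in pH 7.6 Hepes/MgCl2 buffer. Enzyme was pre-incubated with compound for 15 min at room temperature. Rate was taken from the 30-min fluorescence change (525/598 nm).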
# Menin-MLL FL inh: qHTS Assay for Inhibitors Targeting the Menin-MLL Interaction in MLL Related Leukemias: Competition With Fluorescein Labeled MLL-derived Peptide; Fluorescence polarization, fluorescein-MLL peptide displacement from menin; FP activity change, % at 61.4 µM; 290,000 tested, under 10 active; inconclusive = falling polarisation curve, or a change in total fluorescence; inactive = total fluorescence flat and polarisation flat or rising; no compound was filed as active; the % refers to the polarisation; negative = inhibition;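 further: % of control where 0% means no effect; inhibitors lower the polarisation; unlabelled MLL peptide was the positive control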
# gsp ag: qHTS for Agonist of gsp, the Etiologic Mutation Responsible for Fibrous Dysplasia/McCune-Albright Syndrome: qHTS | AID 624287, 2012 | gsp mutant cells, cAMP HTRF, 30 min; control for the full effect not named in the record | Potency, µM (series often up to 76.9 µM), inactives show at the highest dose activation (cAMP increase), actives largely listed as activators | actives 0.13% (n = 340,000); active = well fitted activation curve with a large enough effect; inconclusive = small, poorly fitted or top-dose-only effect, or another doubt; inactive = no such curve, though single readings can be large or run the other way; cell line not stated here;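 further: phosphodiesterase inhibitor Ro 20-1724 added with compounds to block cAMP breakdown; potency means the concentration at half of the fitted maximal effect; nearly all actives have a fitted effect of over 60% in size; about a fifth of the inactives were tested at one dose only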
#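 Cells stably selected in G418 were plated at 2000/well, grown 16-24 hr, then given compounds in DMSO with the PDE inhibitor […] (300 uM solution added) for 30 min at 37C; cAMP was read by HTRF.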
# D2 agonist: Beta-Arrestin HTS for Positive Allosteric Modulators of the Human D2 Dopamine Receptor: Agonists; D(2) dopamine receptor (Homo sapiens), P14416; AID 624465, 2012; DiscoveRx PathHunter D2 beta-arrestin, luminescence, 90 min; 100% = 57 uM dopamine signal; actives 0.084% (n = 360,000); activation, % (concentration not given with the values); in the data active = activation above about 40%; inconclusive = about 15% to 40%; inactive = below about 15%; further: compound concentration not given in the record; the text of the record calls up to 30% inactive
# Target sequence (P14416 whole entry, looked up): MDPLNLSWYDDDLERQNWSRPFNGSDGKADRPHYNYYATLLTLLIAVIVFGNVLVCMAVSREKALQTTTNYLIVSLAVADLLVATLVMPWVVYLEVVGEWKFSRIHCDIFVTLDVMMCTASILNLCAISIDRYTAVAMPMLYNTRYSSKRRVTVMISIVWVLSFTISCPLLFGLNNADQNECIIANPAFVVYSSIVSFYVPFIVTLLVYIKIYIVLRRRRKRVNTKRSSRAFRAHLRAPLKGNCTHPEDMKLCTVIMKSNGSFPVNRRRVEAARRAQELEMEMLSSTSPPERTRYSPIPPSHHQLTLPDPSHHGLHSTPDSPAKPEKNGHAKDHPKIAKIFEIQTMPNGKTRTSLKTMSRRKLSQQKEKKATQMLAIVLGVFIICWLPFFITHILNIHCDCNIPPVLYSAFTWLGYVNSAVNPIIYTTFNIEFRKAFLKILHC
#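 Agonist mode: compounds alone added to overnight-plated D2 PathHunter cells for 90 min at 37 C, with 57 uM final dopamine (EC100) defining full response. Beta-arrestin recruitment detected by chemiluminescent reagent, read after 1 h at ambient temperature.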
# PINK1 modulator: A Quantitative High throughput Screen to Identify Chemical Modulators of PINK1 Expression; PINK1 immunofluorescence, high-content cytometry, 24 h; Potency, µM (doses to about 76.6 µM), for the others: at the highest dose activation (PINK1 increase), most hits filed as activators; actives 0.2% (n = 410,000); AID 624263, 2012; active = well fitted activation curve with a large enough effect; inconclusive = small, poorly fitted or top-dose-only effect; inactive = flat fitted curve, though single readings scatter; cell line not stated here;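 further: potency means the concentration at half of the fitted maximal effect; % of control where 0% means no effect; nearly all actives have a fitted effect of over 65% in size; a mitochondrial uncoupler was the plate control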
#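 Measures PINK1 amount and localization on or inside mitochondria by immunofluorescence. Stable cells get compounds at 5 concentrations for 24 hours before fixation and staining; CCCP controls included.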
# * = called active by the depositor; ? = inconclusive; nt = no result given; & = joins results of further samples; [ ] = remark or other dose.
SMILES,ClpP mod,gsp antagonist,Sfp inh,Menin-MLL FL inh,gsp ag,D2 agonist,PINK1 modulator
Cc1ccc(C(=O)Oc2ccc(-c3nccc(-c4ccccn4)n3)cc2)cc1,1.5%,-11%,-4%,0.6,-67%[inhibitor],0.9,6.1%
Cc1cccc(NC(=O)CCNC(=O)c2ccccc2)c1,nt,7%,14%,-6.0,4%,0.0,0.0%
COc1ccc(C(=O)N(Cc2sccc2C)C2CCS(=O)(=O)C2)cc1 (stereo unspecified),-2.1%&-0.9%,-7%,16%,nt,27%[15.4 µM],2.9,3.1%&-0.1%
COc1cc(C(=O)Oc2ccccc2)ccc1OCc1c(C)noc1C,-5.9%,16%,2%,2.5,29%,-2.8,1.3%
CCn1ncc(N(C)N)c(Cl)c1=O,nt,3%,18%,1.3,?,7.0,-3.4%
COc1ccc(-c2nc(C#N)c(N3CCC(C(N)=O)CC3)o2)cc1OC,-1.7%,4%,20%,2.4,-2%,-1.2,nt
CN(Cc1ccccc1C#N)S(=O)(=O)c1cccs1,nt,4%,-6%,-0.3,-12%[15.4 µM],1.1,-0.9%
Cc1cc(=O)oc2cc(OCC(=O)NCCCN3CCOCC3)ccc12,28µM*,4%[15.4 µM],10%,-0.7,?,-3.7,-1.8%
CC(C)[C@H](NC(=O)C1CCN(S(=O)(=O)c2ccc(F)cc2)CC1)C(=O)N1CCCC1,-0.2%,3%,3%,nt,-63%[inhibitor],-1.8,0.2%
O=C(CC1SC(=NCC2CCCO2)NC1=O)Nc1cc([N+](=O)[O-])ccc1Cl (stereo unspecified),0.6%,4%,8%,-1.2,-2%[15.4 µM],0.5,0.9%
Cc1ccccc1C(OCCN(C(C)C)C(C)C)c1ccccc1 (stereo unspecified),-2.9%,10%,-9%,1.4,0%,-2.1,1.4%
CSc1ccc(C(=O)C2CCCN(C(=O)c3ccc4c(c3)no[n+]4[O-])C2)cc1 (stereo unspecified),-1.2%,-21%,3%,-1.1,-27%,7.0,-0.2%
COc1ccc(S(=O)(=O)N2CCC(C(=O)Nc3cccc(C(C)=O)c3)CC2)cc1,-5.3%,-1%[15.4 µM],3%,-0.1,-2%,0.1,0.0%
O=C(Nc1cc(S(=O)(=O)N2CCOCC2)ccc1Cl)c1cc2ccccc2o1,1.5%,-13%,nt,nt,-16%[15.4 µM],-0.9,3.7%
C=Cc1ccc(CC2(C)C(=O)Nc3ccc(Cl)cc32)cc1 (stereo unspecified),-3.4%,nt,nt,nt,nt,-1.8,4.0%

# Copied from the list:
# Menin-MLL FL inh with Cc1ccccc1C(OCCN(C(C)C)C(C)C)c1ccccc1 (stereo unspecified) is entered as 1.4
# ClpP mod with COc1cc(C(=O)Oc2ccccc2)ccc1OCc1c(C)noc1C is entered as -5.9%

# (continued)
SMILES,ClpP mod,gsp antagonist,Sfp inh,Menin-MLL FL inh,gsp ag,D2 agonist,PINK1 modulator
CCc1ccc(N2C(=O)C(Cl)=C(Nc3ccc(C(=O)N4CCCC4)cc3)C2=O)cc1,2.3%,?,nt,nt,-27%,3.7,-0.2%
CN(C)C=NC(=O)c1cc(C(=O)c2ccc(Cl)cc2Cl)c[nH]1,nt,-7%,2%,3.0,17%,3.9,0.4%
COc1ccc(-c2ccc3c(c2)S(=O)(=O)c2cccc(C(=O)N4CCN(C5CCCCC5)CC4)c2C3=O)cc1OC,-1.4%,-13%,nt,nt,nt,?,1.5%
O=C(O)c1ccc(CSc2ncnc3c2cnn3Cc2ccccc2)cc1,-1.1%,-14%,1%,3.8,?,-2.5,-0.6%
COc1ccccc1NC(=O)N(CCN1CCOCC1)Cc1cc2cc(C)cc(C)c2[nH]c1=O,nt,-10%,1%,1.2,6%[15.4 µM],0.3,-1.9%
NC(=O)COc1c(-c2ccco2)oc2ccccc2c1=O,nt,7%,89µM*,?,5%[15.4 µM],-1.8,0.6%
O=C(CNS(=O)(=O)c1ccc(F)cc1)N1CCCC1,nt,17%,nt,nt,0%[15.4 µM],-1.5,-0.2%
COc1ccc(Cl)cc1CNC[C@H]1O[C@@H](n2cnc3c(=O)[nH]c(N)nc32)[C@H](O)[C@@H]1O,0.2%,nt,nt,nt,nt,-5.8,-1.2%
O=C(c1cnn(-c2ccccc2)c1)c1cc(F)ccc1O,-7.4%,-6%,13%,-0.4,-6%[15.4 µM],2.3,0.8%
CCOc1ccc(-c2n[nH]c(C)c2-c2ccccn2)c(O)c1,-1.6%,5%,6%,-3.5,1%,-2.4,-0.2%
CCS(=O)(=O)N1CCN(c2ccc([N+](=O)[O-])c(NCc3ccccc3)c2)CC1,9.8%,-3%,11%,-1.1,1%,-0.4,-1.6%
COc1cccc(NC(=O)CCN2C(=O)c3cccc([N+](=O)[O-])c3C2=O)c1,-3.1%,-12%,9%,-5.5,-2%[15.4 µM],-0.9,2.5%
CCCCN(C(=O)CSc1ncnc2sccc12)c1c(N)n(Cc2ccccc2)c(=O)[nH]c1=O,-0.6%,-15%,nt,nt,?,-2.5,7.0%
O=S(=O)(NCc1ccco1)c1ccc(Cl)nc1,-2.8%,12%,1%,7.5,2%,0.9,-0.9%
N#CCCn1cc(/C=N/N=C2\NC(=O)C(CC(=O)O)S2)c(-c2ccc(F)cc2)n1 (stereo unspecified),nt,10%,-1%,-8.0,2%[15.4 µM],-1.9,1.0%
Cc1cc2cc(CCNC(=O)c3cccc([N+](=O)[O-])c3)c(=O)[nH]c2cc1C,-4.9%,?,1%,5.0,33%[15.4 µM],1.2,6.4%
COCCNC(=O)c1cccc(NC(=O)C2=C(C)OCCS2)c1,nt,9%,9%,-6.7,22%,-0.7,1.3%
COC(=O)c1ccc(NC(=O)CCC(=O)c2ccc(F)cc2)cc1,-0.6%,4%,6%,0.2,27%,-6.4,7.0%
Nc1ncnc(Nc2ccc(F)c(Cl)c2)n1,-0.8%,0%,6%,1.6,-13%,-1.2,-1.6%
O=C(Nc1ccccc1)c1cc(S(=O)(=O)N2CCCCC2)ccc1N1CCOCC1,0.5%,-4%,nt,nt,17%,2.7,1.7%
Cc1nc(CN(C)C(=O)c2ccccc2OC2CCN(S(C)(=O)=O)CC2)cs1,nt,nt,10%,6.4,-4%[15.4 µM],-2.1,-1.7%
CSc1ccc(C2C3(C#N)C(N)=NC4(OCCO4)C23C#N)cc1 (stereo unspecified),-2.9%,-1%,3%,0.7,-46%[inhibitor],-0.5,-2.8%
Nc1nnc(COc2ccccc2)s1,?,5%,1%,0.6,21%,-2.1,-0.8%
c1coc(CN=C2NC(=NCc3ccco3)c3ccccc32)c1,-0.6%,-9%,-17%,?,-31%[inhibitor],-2.6,-2.6%[38.3 µM]
CNC(=S)N1N=C(c2cccs2)CC1c1ccc(F)cc1 (stereo unspecified),-10%,-21%,-12%,-0.3,26%,-3.5,4.4%
Cn1nnnc1SCc1nc2scc(-c3ccc(Cl)cc3)c2c(=O)[nH]1,-2.4%,-7%,3%,-0.1,28%,1.9,40µM*
COc1ccccc1OCCNc1cc(N2CCCCC2)ccc1[N+](=O)[O-],-2.1%,-1%,-5%,0.8,-9%[15.4 µM],-2.8,-0.8%
CC(C)Cc1nnc(NC(=O)c2cc(S(=O)(=O)N(C)C)ccc2N2CCCC2)s1,-10%,-5%,10%,nt,-15%,-0.5,-1.8%
O=C1OCCN1c1c(-c2ccccc2)c(-c2cccs2)nc2c(-c3ccccc3)cccc12,3.5%,-8%,-6%,0.5,nt,3.3,1.1%
COc1ccc2c(c1)Cc1sc(NC(=O)c3ccco3)nc1-2,35%,?,-19%,1.4,-6%,-0.6,1.6%
Cc1ccc(C(C)C)c(OCC(=O)Nc2ccc(Cl)cn2)c1,1.0%,-2%,-1%,0.9,27%,-6.2,18%
CC(=O)c1ccc(NS(=O)(=O)Cc2ccccc2)cc1,-1.6%,-1%,25%,-2.2,7%,-1.1,-1.1%[38.3 µM]
Cc1ccc(NC(=O)CN(C)C(=O)C2COc3ccccc3O2)cc1 (stereo unspecified),4.0%,0%,-2%,-2.1,19%,-1.0,-1.2%
COc1cccc(CNS(=O)(=O)c2ccc(N3CCCC3=O)cc2)c1,nt,7%,0%,-4.5,5%,0.7,1.4%
Oc1ccc(-c2cccc(-c3ccc(O)cc3)n2)cc1,-1.9%,-16%,1%,-1.1,8%,0.8,1.0%
O=C1CC2CC1C(C(=O)O)C2C(=O)O (stereo unspecified),-1.7%,10%,nt,nt,32%,-2.3,-2.6%
COc1ccc(OC)c(S(=O)(=O)Nc2cc(C(=O)O)ccc2N2CC3CC(C2)c2cccc(=O)n2C3)c1 (stereo unspecified),-0.4%,3%,25%,3.1,-14%,1.0,2.4%
CC(C)N(Cc1cc2ccccc2[nH]c1=O)C(=O)c1ccco1,nt,1%,50µM*,5.7,9%,4.1,-1.6%
O=C(c1ccco1)N1CCN(C(=O)c2cccs2)CC1,-2.1%,0%,-5%,1.2,-9%,2.3,-3.3%[38.3 µM]
Cc1ccc(-n2nnnc2SCC(=O)Nc2ccc3c(c2)OCCO3)cc1C,-2.6%,-11%,-10%,3.9,-18%,0.3,0.2%
O=C(Nc1ccncc1)Nc1ccncc1,nt,-29%,14%,1.8,2%[15.4 µM],10,0.5%
CC1CCCC(C)N1C(=O)C1CC(c2ccc(F)cc2)=NO1 (stereo unspecified),-1.3%,5%,10%,0.9,25%,2.0,1.4%[38.3 µM]
COc1ccc(-c2nc3cnc(OC)nc3n(-c3ccc(OC)cc3)c2=O)cc1,nt,nt,0%,-8.7,nt,nt,2.5%

# Assay outcomes as filed in PubChem.
